Screens (PubChem)
MOR-DOR ag: agonists of human mu-delta opioid receptor heterodimerization. 340,000 compounds, 0.3% hits. activation, % at 9.3 µM. cells, OPRM1-OPRD1 heterodimerization, luminescence; in the data active means activation above about 18%;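 further: 0% = vehicle-treated cells and 100% = reference agonist; values of inactives mirror those of a sister screen read the other way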
Target sequence (P35372 whole entry, looked up): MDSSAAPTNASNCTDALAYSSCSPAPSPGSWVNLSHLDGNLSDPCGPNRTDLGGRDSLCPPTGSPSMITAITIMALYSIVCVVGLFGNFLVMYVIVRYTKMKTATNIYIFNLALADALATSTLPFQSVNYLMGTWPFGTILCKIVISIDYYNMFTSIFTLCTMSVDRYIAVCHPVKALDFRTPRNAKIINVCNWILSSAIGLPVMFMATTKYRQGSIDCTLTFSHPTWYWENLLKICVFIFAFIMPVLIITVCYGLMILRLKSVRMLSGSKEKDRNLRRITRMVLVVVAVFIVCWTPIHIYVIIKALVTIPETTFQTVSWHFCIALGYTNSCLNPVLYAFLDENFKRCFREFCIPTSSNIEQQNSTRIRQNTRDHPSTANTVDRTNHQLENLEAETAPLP
Target sequence (P41143 whole entry, looked up): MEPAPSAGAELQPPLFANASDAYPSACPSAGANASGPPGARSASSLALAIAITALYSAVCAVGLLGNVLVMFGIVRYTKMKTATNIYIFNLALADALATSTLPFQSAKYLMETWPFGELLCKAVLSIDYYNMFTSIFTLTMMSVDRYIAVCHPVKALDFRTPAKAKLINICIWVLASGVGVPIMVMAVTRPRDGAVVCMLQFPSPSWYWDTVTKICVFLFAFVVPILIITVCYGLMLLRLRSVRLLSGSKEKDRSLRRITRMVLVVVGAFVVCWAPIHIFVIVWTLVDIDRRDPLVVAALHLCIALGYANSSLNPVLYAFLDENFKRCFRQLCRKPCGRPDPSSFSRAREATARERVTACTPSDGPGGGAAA
PKA-R1A act: PKA-R1A complex activation | P00514+P68181 | PKA-R1A dissociation, Cy5-IP20 fluorescence polarization; scaled: DMSO 0%, 113 µM cGMP 100% | activation, % at 11.4 µM | 340,000 compounds, 0.083% hits | AID 504707;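 active means percent activation above the mean of all tested compounds plus 3 SD, cut at about 19% in these data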;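 further: higher means more PKAc released from R1A so a rise in polarization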
Tat export inh: E. coli Tat transport inhibition; inhibition, % at 10 µM; 340,000 compounds, 0.036% hits; E. coli MC4100 TorA-mCherry Tat export, fluorescence;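 active means mean replicate inhibition at least 50% and at least half of replicates individually reaching 50%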;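 further: exported cargo escapes ClpAP degradation while cytoplasmic cargo is degraded and loses fluorescence; 0% = median of neutral control wells and 100% = median of NaSCN control wells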
OPRM1-OPRD1 inv: inverse agonists of human mu-delta opioid receptor heterodimerization | P35372+P41143 | cell-based MOR-DOR heterodimer luminescence, inverse agonism | inhibition, % at 9.3 µM | 340,000 compounds, 0.21% hits | AID 504357; in the data active means inhibition above about 22%, passing the limit was not always enough;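 further: 0% = cells with DMSO and 100% = wells without cells with DMSO; values of inactives mirror those of a sister screen read the other way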
Arr AP2 block: blocks beta-arrestin peptide binding to AP2 adaptin; FITC-arrestin peptide / GST-AP2 beads, flow cytometry; AP2 beta2 appendage carries R879A mutation; inhibition, % at 10 µM; 340,000 compounds, 0.31% hits; AID 504490;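 active means inhibition above a set limit, near 3 SD of compounds lacking own fluorescence, cut at about 54% in these data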;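 further: plate controls were DMSO wells for no effect and 5 µM unlabelled arrestin peptide for full effect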
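System: GST-AP2 R879A glutathione beads | Also added: FITC-arrestin peptide, 50 nM | Times: 12 min plus 1 h, RT | Signal: Bead flow cytometry, FITC channel | Buffer or medium: PBS with 0.05% Tween 20 and 0.1% BSA | Read-out basis: Percent drop in bead-associated FITC signal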
DSG3 Ab inh: blocks pemphigus antibody binding to human desmoglein-3; binding (percent of control), % at 10 µM; DSG3-coupled beads, scFv-anti-DSG3-GFP binding, flow cytometry; active compounds read low; 310,000 compounds, 0.48% hits; P32926;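 active means binding more than 3 SD below its plate's average and above zero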;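 further: hits lower antibody fragment binding to DSG3; some compounds called inactive have numbers as strong as hits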
Mot1-301 SUMO: SUMOylation pathway inhibition by Mot1-301 growth rescue. S. cerevisiae Mot1-301 growth rescue, ATP luminescence, 38.5C; percent above DMSO median, 100 means doubled. growth rescue, % at 18.8 µM. 320,000 compounds, 1% hits;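 active means every valid replicate shows activation above 250% relative to neutral control wells; inactive means the rest, any valid replicate at or below 250%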;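 further: OY570 slx delta 5 strain wells were the positive control but not used for scaling; some compounds called inactive have numbers as strong as hits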
PfHsp90 yeast 2: reduces growth (ATP signal) of yeast expressing P. falciparum Hsp90 | 310,000 compounds, 0.32% hits | AID 504621 | S. cerevisiae expressing PfHsp90, BacTiter-Glo ATP, 48 h; yeast lacking PDR1 and PDR3 efflux regulators | inhibition, % at 9.4 µM;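 active means every replicate shows inhibition above about 80%, whatever the replicate mean, limit read from the data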;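 further: 0% = DMSO neutral controls and 100% = 20 µM radicicol positive controls; yeast relying on Plasmodium falciparum Hsp90 in place of its own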
* hit, by the source's call; . = not tested or not shown; + = active, no number. These rows are one share of the data (hit frequency here may not be typical).

SMILES	MOR-DOR ag	PKA-R1A act	Tat export inh	OPRM1-OPRD1 inv	Arr AP2 block	DSG3 Ab inh	Mot1-301 SUMO	PfHsp90 yeast 2
CCCC1=C(C(=O)OCC)C(c2ccc(OC)c(CSc3ccccn3)c2)C(C#N)=C(N)O1 (stereo not given)	3.5	0.8	11.7	-21.7	-1.8	103.0	6.9	11.5
COc1ccc(CNc2ncnc3cc(Cl)ccc23)cc1	1.2	-6.4	-2.9	-6.0	-8.0	98.7	-14.6	-0.8
COc1ccc(C(=O)N/C(=C\c2cccs2)c2nc3ccccc3[nH]2)cc1OC	-2.2	-2.4	1.9	11.9	1.6	102.0	-2.4	-12.0
Cc1ccc(SCc2nc(-c3cccnc3)no2)cc1	0.8	-6.0	-0.2	-3.4	1.6	117.1	1.8	41.7
N#CC1=C(N)Oc2c(oc(CO)cc2=O)C12C(=O)Nc1ccc(Cl)cc12 (stereo not given)	-0.7	-18.9	-4.6	3.8	10.1	103.8	-16.2	.
Cc1ccc(CNC(=O)C(NS(=O)(=O)c2cccc3nsnc23)C(C)C)cc1 (stereo not given)	-3.0	0.3	2.7	15.4	29.2	99.4	.	6.0
O=C(/C=C/c1ccco1)Nc1nc(-c2ccccc2)cs1	-3.2	-8.1	-5.2	17.0	5.4	115.3	23.4	-32.7
CC(=O)Nc1cccc(C(=O)O)n1	-2.3	-7.4	-1.2	11.6	-3.4	98.2	19.1	-24.6
COc1ccc(C2c3c(C)nn(-c4ccccc4)c3NC(=O)N2c2ccccc2)cc1 (stereo not given)	0.7	-0.6	-1.9	-4.4	0.3	86.3	23.7	7.0
Cc1sc2ncnc(N3CCN(c4ncccn4)CC3)c2c1C	-2.2	-6.0	-1.7	12.3	8.1	112.0	-11.1	9.2
CC(=O)Nc1cccc(NC(=O)CSc2nnc(Cc3cccn3C)n2-c2ccc(F)cc2)c1	0.9	4.2	3.8	-5.2	-13.9	105.8	-7.9	-14.0
CCCCN1C(=O)N(c2nnc(C(C)(C)C)s2)C(O)C1c1ccc(C)cc1 (stereo not given)	10.9	-2.0	1.2	-57.3	41.1	109.6	-20.4	-3.6
CCCCn1c(N)c(N(CC)C(=O)c2ccc(-c3ccc(Cl)cc3)o2)c(=O)[nH]c1=O	-1.6	4.5	0.3	6.2	-8.4	.	1.2	11.2
COc1ccc(Oc2nc3c(c(=O)n(C)c(=O)n3C)n2Cc2ccccc2)cc1	0.4	5.0	5.0	-1.8	-3.9	109.9	-2.7	23.0
CCCN(CCC)Cc1c(C(=O)N/N=C/c2ccoc2)nnn1-c1nonc1N	1.9	-7.0	4.0	-11.7	-6.6	.	3.4	-5.3
CCOc1cc(C)c(Cl)cc1S(=O)(=O)N(C)C	-0.3	-8.7	4.8	1.2	14.4	109.2	-8.1	-2.8
Cc1ccc([N+](=O)[O-])cc1NC1CC(O)C(CO)O1 (stereo not given)	-2.4	0.6	-0.7	12.7	20.2	97.6	.	16.0
CCN1CCC2(CC1)Oc1c(OC)cccc1C1CC(c3cccnc3)=NN12 (stereo not given)	.	.	.	.	40.1	108.1	-18.4	.
Cc1cccc2c1-c1sc(C(=O)NCCCN3CCc4ccccc4C3)cc1CO2	4.9	1.2	4.5	-24.5	-1.1	86.3	6.7	-4.6
O=C(NN=C1CCCCCCCCCCC1)c1cccc(S(=O)(=O)N2CCOCC2)c1	-2.2	-6.5	-1.1	12.2	-1.3	.	0.1	-13.9
CC(=O)OCP(C)(=O)COC(C)=O	-2.4	-11.6	10.0	9.9	1.1	.	-12.6	-9.6
CC(=O)c1ccc(NC(=O)C(C)OC(=O)C(C)Oc2cccc(C)c2)cc1 (stereo not given)	0.1	-8.1	-2.0	-0.7	-1.2	92.2	26.0	12.1
CCC(NC(=O)C1C2C=CC(C2)C1C(=O)O)c1ccc(C)cc1 (stereo not given)	0.4	-6.8	4.1	-1.9	-0.7	115.2	-7.8	3.7
Cc1ccc(-c2nc3c(cnn3-c3ccccc3)c(=O)o2)cc1	-0.3	-18.1	7.7	1.6	-3.4	95.1	-8.8	2.6
O=S(=O)(NC1CCCCC1NCc1ccco1)c1ccc(Cl)cc1 (stereo not given)	0.2	-4.1	-5.6	-1.0	11.6	102.0	-1.0	-7.0

Quoted at random: 2 records from the list
SMILES	MOR-DOR ag	PKA-R1A act	Tat export inh	OPRM1-OPRD1 inv	Arr AP2 block	DSG3 Ab inh	Mot1-301 SUMO	PfHsp90 yeast 2
O=S(=O)(NC1CCCCC1NCc1ccco1)c1ccc(Cl)cc1 (stereo not given)	0.2	-4.1	-5.6	-1.0	11.6	102.0	-1.0	-7.0
Cc1ccc(-c2nc3c(cnn3-c3ccccc3)c(=O)o2)cc1	-0.3	-18.1	7.7	1.6	-3.4	95.1	-8.8	2.6

Some of the entries so far, with each value named.
O=C(NN=C1CCCCCCCCCCC1)c1cccc(S(=O)(=O)N2CCOCC2)c1
  MOR-DOR ag: -2.2; PKA-R1A act: -6.5; Tat export inh: -1.1; OPRM1-OPRD1 inv: 12.2; Arr AP2 block: -1.3; DSG3 Ab inh: .; Mot1-301 SUMO: 0.1; PfHsp90 yeast 2: -13.9
CCC(NC(=O)C1C2C=CC(C2)C1C(=O)O)c1ccc(C)cc1 (stereo not given)
  MOR-DOR ag: 0.4; PKA-R1A act: -6.8; Tat export inh: 4.1; OPRM1-OPRD1 inv: -1.9; Arr AP2 block: -0.7; DSG3 Ab inh: 115.2; Mot1-301 SUMO: -7.8; PfHsp90 yeast 2: 3.7

Next structures:
SMILES	MOR-DOR ag	PKA-R1A act	Tat export inh	OPRM1-OPRD1 inv	Arr AP2 block	DSG3 Ab inh	Mot1-301 SUMO	PfHsp90 yeast 2
Cc1ccc(S(=O)(=O)Nc2nc(C)cc(NCCN)n2)cc1	-0.5	-13.2	-4.0	2.5	5.2	112.8	92.3	5.1
Cc1cc(C)nc(/N=C(\N)Nc2ccc(F)c([N+](=O)[O-])c2)n1	-2.9	-7.8	0.3	12.8	1.4	100.0	14.7	0.8
Cc1ccc(C)c(N2CCN(C(=O)CCCN3C(=S)NC(C)(C)CC3C)CC2)c1 (stereo not given)	-3.6	0.8	-4.2	19.5	33.2	112.9	-10.5	-3.8
CCSc1nnc(NC(=O)CSc2nnc(Cc3cccn3C)n2-c2ccc(C)cc2)s1	0.1	-4.7	1.1	-0.5	19.3	102.3	11.1	.
NC(=O)C1CCN(C(=O)c2ccccc2SCC(=O)NCC2CCCCC2)CC1	-3.0	-6.7	5.7	16.1	-3.1	.	-17.1	7.8
CC(C)[C@@H]1COC(c2cccc(C3=N[C@H](C(C)C)CO3)c2)=N1	0.6	-0.8	-0.6	-3.2	3.7	105.9	97.6	-15.3
Cc1ccc(C)c(NC(=O)CN(C)C(=O)C2COc3ccccc3O2)c1 (stereo not given)	-1.3	-6.5	6.1	5.3	13.4	103.6	-0.4	-12.2
Cc1c(-c2ccc(F)cc2)nc(N)c(C#N)c1-c1cccnc1	.	.	.	.	36.0	93.7	-0.1	.
CCCC(C)c1nnc(NC(=O)c2cc(C(=O)OC)cc([N+](=O)[O-])c2)s1 (stereo not given)	-0.5	-5.6	0.2	2.8	26.8	94.0	-0.7	-1.7
Brc1cccc(OCCCNC2CCCC2)c1	-0.8	1.1	-0.9	3.8	0.2	97.7	-22.4	6.1
CSc1nc(N2CCOCC2)c2c3c(sc2n1)CCC3	0.0	7.6	0.1	-0.1	-5.0	.	-0.6	16.4
COCCNC(=O)CSc1nc2scc(-c3ccccc3)c2c(=O)[nH]1	-1.8	-9.8	-8.5	9.6	22.2	104.3	1.3	-13.3
COc1ccc(Nc2cc(C(=O)NC3CCCC3)c3ccccc3n2)c(OC)c1	0.0	-10.7	-3.0	-0.1	-1.5	102.9	12.8	21.7
COc1ccc(CN(Cc2cccn2C)S(=O)(=O)c2ccccc2)cc1	1.4	0.3	6.3	-7.5	-3.9	107.4	14.7	8.6
CCC(C)n1c(C)nc2c(c1=O)c1nc3ccccc3nc1n2CCC1=CCCCC1 (stereo not given)	-1.4	-0.6	2.1	6.7	9.8	93.4	107.4	-3.2
CCOc1cc(C(=O)N2CCN=C2SC)cc(OCC)c1OCC	-1.3	-2.4	-2.3	7.0	10.0	99.2	-8.3	-1.0
Nc1cc(Nc2ccc(Br)cc2)nc(N)n1	4.4	10.2	1.0	-22.2	3.8	103.7	96.3	-20.8
CC(=O)NS(=O)(=O)c1ccc(NC(=O)/C=C/c2ccco2)cc1	0.5	12.4	1.8	-2.6	-9.2	102.9	40.1	-19.3
CCn1c2ccccc2c2cc(NC(=O)N3CCCCC3)ccc21	.	-5.9	.	.	.	96.6	.	.
Cc1cc(-c2ccc(C)c(S(=O)(=O)NCCCN3CCCCCC3)c2)on1	-2.2	-8.2	10.3	11.6	-1.4	101.9	5.4	0.3
O=C(N/N=C/c1ccc(O)c2ncccc12)c1cccc(Br)c1	5.1	-3.0	-2.8	-25.8	-8.0	78.9	-25.0	104.2*
COc1ccc(C(=O)O/N=C/c2ccc(S(=O)(=O)c3ccc(Cl)cc3)nc2)cc1	-0.5	3.0	-0.4	2.3	3.1	94.0	6.9	1.2
CCC[C@@H]1C[C@@H](C(=O)NC(C(C)Cl)[C@H]2O[C@H](SC)[C@H](O)[C@@H](O)[C@H]2O)N(C)C1 (stereo not given in full)	-0.5	-13.7	19.1	2.8	-4.5	102.5	16.9	2.3
CSc1ccc(S(=O)(=O)NCc2ccccc2Cl)cc1	5.8	-5.6	3.6	-30.9	1.5	103.7	4.3	-46.5
O=Cc1cccn1Cc1ccccc1[N+](=O)[O-]	-1.9	6.1	-4.4	9.5	35.3	95.2	-9.3	5.1

PfHsp90 yeast 2: hit marks shown above
SMILES	MOR-DOR ag	PKA-R1A act	Tat export inh	OPRM1-OPRD1 inv	Arr AP2 block	DSG3 Ab inh	Mot1-301 SUMO	PfHsp90 yeast 2
O=C(N/N=C/c1ccc(O)c2ncccc12)c1cccc(Br)c1	5.1	-3.0	-2.8	-25.8	-8.0	78.9	-25.0	104.2*

The listing continues.
SMILES	MOR-DOR ag	PKA-R1A act	Tat export inh	OPRM1-OPRD1 inv	Arr AP2 block	DSG3 Ab inh	Mot1-301 SUMO	PfHsp90 yeast 2
CCN(c1ccc(NC(=O)COC(=O)c2ccc(S(=O)(=O)N3CCCC3)cc2)cc1)C(C)C	1.2	1.0	-10.7	-6.2	0.1	99.2	218.5	-2.1
O=C(NC1CCCC1)c1cc(Cl)ccc1[N+](=O)[O-]	-0.6	-6.7	-5.6	3.1	-19.2	122.4	-12.6	-16.1
Cc1ccc(C(=S)N2CCCCCC2)cc1	0.4	8.3	-2.7	-2.1	3.1	99.4	7.6	-6.1
Cc1ccc(CNC(=O)CNC(=O)c2c(C)nn(C)c2Cl)cc1	-1.0	1.4	-4.5	5.1	48.5	107.3	14.7	4.1
OCc1cnc(SCc2ccccc2)n1Cc1ccccc1	-2.1	1.5	-3.5	10.3	-3.1	99.7	6.8	2.1
CCN(C(=O)COc1cc(=O)n(CC)c2ccccc12)c1cc(Cl)ccc1OC	-3.1	-11.1	-2.8	15.9	1.5	103.0	11.4	-9.6
Cc1ccc(OCCNC(=O)/C=C/c2ccc([N+](=O)[O-])cc2)cc1C	3.1	-1.2	4.8	-17.8	6.1	90.3	-24.5	.
O=S(=O)(c1cccc2nsnc12)N1CCN(c2ncccn2)CC1	-3.3	2.0	6.1	14.0	0.8	101.2	-18.2	-9.8
CCOc1ccccc1C(=O)N(Cc1cccs1)C1CCS(=O)(=O)C1 (stereo not given)	-0.6	-1.4	-12.5	2.3	-4.5	.	+	5.8
COc1ccc(NC2CS(=O)(=O)CC2NCc2ccccc2)cc1 (stereo not given)	-0.3	-6.6	-1.4	1.3	1.6	110.1	9.7	-5.5
